NPYLR7 ag = agonists of mosquito NPYLR7 receptor, primary screen, cell-based, Aedes aegypti, calcium fluorescence, mosquito biting behavior; HEK293T NPYLR7/Galpha15, GCaMP6s calcium fluorescence; hit rate 0.15% among 270,000; activation, % at 10 µM; in the data active = activation above about 40%;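 note: 0% = vehicle and 100% = reference agonist at the receptor; some compounds past the cut are filed as inactive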
NPYLR7 ag max-min = recorded beside NPYLR7 ag, whose call it bears; activation, %; measured here: Max-Min RFU normalised activation; some inactives read as strong as hits;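 span of the calcium signal over five minutes; 0% = vehicle and 100% = native peptide agonist; compound fluorescence can raise it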
An asterisk follows results filed as active; & = joins results of further samples. An excerpt; rates above refer to the full screens.

The opening two records, to show the layout:
SMILES	NPYLR7 ag	NPYLR7 ag max-min
C=CCNC(=O)N1CCN(C(C(=O)NCc2ccccc2F)C2CCCC2)CC1 (stereo not given)	-13	-4
COCC(=O)NCCn1ncc2c(N3CCCC3)ncnc21	2	2

The whole of this part, from the start:
SMILES	NPYLR7 ag	NPYLR7 ag max-min
C=CCNC(=O)N1CCN(C(C(=O)NCc2ccccc2F)C2CCCC2)CC1 (stereo not given)	-13	-4
COCC(=O)NCCn1ncc2c(N3CCCC3)ncnc21	2	2
Cc1nnc(NC(=O)c2cc(-c3ccccc3)n(C3CCS(=O)(=O)C3)n2)s1 (stereo not given)	4	0
O=C(CN(CCCN1CCOCC1)S(=O)(=O)c1ccc(Cl)cc1)N(Cc1ccccc1)Cc1ccco1	-5	-2
COc1cccc(-c2nnc(SCc3ccc(C(=O)NCc4ccco4)cc3)n2-c2ccc(F)cc2)c1	7	17
CC(C)(C)c1cc(N2CCN(C/C=C/c3ccccc3)CC2)nc(SCc2ccc(C(=O)NCc3cccnc3)cc2)n1	0	5
Cn1c2c(c(=O)n(C)c1=O)CN(CCN1CCNCC1)CN2	-11	-18
CC(C)Oc1ccc(F)cc1NC(=O)N1CCC2(CC1)OCCO2	7	7
Cc1ccccc1-n1cnc(Cl)c1C(=O)O	0	-1
COc1ccccc1OCC(=O)NCc1cc(-c2ccc3c(c2)OCO3)on1	2	0
COc1cc(C=C(C#N)S(=O)(=O)c2ccc(Cl)cc2)cc(Cl)c1O	118*	128*
CCC(=O)Nc1ccc(-c2nc3ccccc3o2)cc1	-1	0
O=C(C=C(O)c1cccc(C(O)=CC(=O)C(F)(F)F)n1)C(F)(F)F	-2	-1
Cc1ccnn1CCN1CCC(=O)N(CC2CC2)C(C(C)C)C1 (stereo not given)	0	7
O=C(COc1ccc2ccccc2c1)NN=Cc1ccc([N+](=O)[O-])cc1	1	-3
COc1cccc(COC(CN2CCN(S(=O)(=O)c3ccccc3C#N)CC2)c2ccc(Cl)cc2)c1 (stereo not given)	-5	-3
CSc1ncc(-c2nccn2CC[C@@H]2C[C@@H]3C=C[C@H]2C3)cn1	18	11
COCCN1CCC(CN(CC2CCCO2)C(=O)c2c(C)nc3ncccn23)CC1 (stereo not given)	3	0
O=c1cc(O)nc2ccccn12	2	2
CC1Oc2ccccc2OC1C(=O)Nc1cccc(S(=O)(=O)N(C)C)c1 (stereo not given)	1	-1
NC(=O)[C@@H]1CCCN1Cc1nc(-c2ccc(C(F)(F)F)cc2)no1	-4	-5
Cc1cc(N2CCCCC2)nc(NCCNC(=O)/C=C/c2ccccc2)n1	2	0
COc1ccc(OC)c(CN(Cc2nc(C(=O)Nc3ccc(F)cc3)co2)C(C)C)c1	3	11
CN=c1scc(-c2ccc(OC(F)F)cc2)n1N=Cc1ccc(OC)c(OC)c1OC	-4	-7
O=C(C1CC(=O)N(c2ccccc2)C1)N1CCN(c2ncnc3c2nnn3-c2ccccc2)CC1 (stereo not given)	-4	-10

4 of the compounds above, as labelled records.
SMILES: Cc1ccnn1CCN1CCC(=O)N(CC2CC2)C(C(C)C)C1 (stereo not given)
  NPYLR7 ag: 0
  NPYLR7 ag max-min: 7
SMILES: COc1cc(C=C(C#N)S(=O)(=O)c2ccc(Cl)cc2)cc(Cl)c1O
  NPYLR7 ag: 118*
  NPYLR7 ag max-min: 128*
SMILES: O=C(C=C(O)c1cccc(C(O)=CC(=O)C(F)(F)F)n1)C(F)(F)F
  NPYLR7 ag: -2
  NPYLR7 ag max-min: -1
SMILES: O=C(C1CC(=O)N(c2ccccc2)C1)N1CCN(c2ncnc3c2nnn3-c2ccccc2)CC1 (stereo not given)
  NPYLR7 ag: -4
  NPYLR7 ag max-min: -10

(listing goes on)
SMILES	NPYLR7 ag	NPYLR7 ag max-min
Cc1ccc(C)c(S(=O)(=O)N2CCN(C(=O)CCC(=O)NCC3(c4ccccc4)CC3)CC2)c1	-1	2
Cc1ccc(CN(Cc2ccc(F)cc2)C(=O)CN(CC(C)C)C(=O)c2ccc(F)cc2)s1	0	6
CCC(C(=O)NCCn1ncccc1=O)c1ccccc1 (stereo not given)	-1	-1
Cn1cccc1-c1cc(C(=O)NC(c2ccccc2)c2ccccc2)n(-c2ccc(Cl)c(Cl)c2)n1	-1	7
CCOc1ccccc1NC(=O)CCc1c(C)nn(-c2nc(C)c(C)c(=O)[nH]2)c1C	-5	-5
COc1cccc(-c2cnc(-c3ccc(CNC(=O)c4cc(Cl)nc(OC)c4)cc3)[nH]2)c1	0	10
COCCn1c(=O)c2c(nc3n(-c4ccccc4Cl)c(C)c(C)n23)n(C)c1=O	-1	5
CC(C)CN1CC(C(=O)N2CC(c3ccncc3)C2)CC1=O (stereo not given)	-3	13
Cc1cc(C)n(-c2cccc(C(=O)N(CCO)Cc3ccco3)c2)n1	2	0
Nc1ccc(F)cc1S(=O)(=O)Nc1ccc(Br)cc1	28	18
COc1ccc(C2c3cccn3CCCN2Cc2cccs2)c(OC)c1OC (stereo not given)	-1	10
CCCOC(=O)C1=C(C)NC2=C(C(=O)CC(c3ccc(OC)cc3)C2)C1c1ccc(OCC)cc1 (stereo not given)	-14	-16
O=C(C1CCN(C(=O)[C@@H]2CCCN2C(=O)Nc2c(F)cc(Br)cc2Br)CC1)N1CCCCC1	4	7
CN(C)c1ncccc1N(C)C(=O)c1ccc(C(F)(F)F)cc1	1	-1
Cc1cc(C)nc(NN=Cc2ccc(I)o2)n1	1	25
S=C1OC(c2ccccc2)=C/C1=C\N1CCCCC1	-3	-6
CSc1ccc(C(=O)N2CCCC(Nc3ccc(F)cc3)C2)cc1 (stereo not given)	1&2	1&-1
Fc1ccc(-c2[nH]ncc2CN2CC3C[C@@H]4CC2C[C@H](C3)C4)c(F)c1	1	-1
Cc1cc(NC(=O)/C=C/c2ccccc2)n(-c2ncnc3c2cnn3-c2ccccc2)n1	5	2
O=C(NC1CC1)C1CCN(C2CCN(C(=O)Cc3c[nH]c4ccccc34)CC2)CC1	4	9
Cc1cc(C)cc(NC(=O)c2c(N)c(C(=O)c3ccccc3)n3ccccc23)c1	-4	-8
CNC(=O)CN(C)C(=O)c1cc(COc2cccc(F)c2)[nH]n1	28	7
CNS(=O)(=O)c1ccc(-c2nccn2CC2OCCc3ccccc32)cc1 (stereo not given)	15	4
Cc1sc2ncnc(N3CCN(Cc4ccc(Cl)cc4)CC3)c2c1C	12	3
CCc1c(C(=O)N2CCC3(CCOCC3)CC2)[nH]c2ccccc12	9	1

Next records follow.
SMILES	NPYLR7 ag	NPYLR7 ag max-min
CC(=O)NCCNc1nc(NC(C)C)nc2cc(-c3ccccc3)sc12	12	5
CCOc1ccc(-n2nnnc2CNC(C)=O)cc1	3	4
CCOC(=O)N1CCN(c2nc(C)c3c(n2)CC(c2ccco2)CC3=O)CC1 (stereo not given)	-2	-1
Cc1c(Cl)cccc1NC(=O)c1cc2nc(-c3ccc(Br)cc3)cc(C(F)(F)F)n2n1	11	2
O=C(N1CCC(n2c(-c3ccccc3)nc3ccc(F)cc32)CC1)C1(c2ccccc2)CC1	19	11
CCCn1ncc(CN2CCCC(CCC(=O)Nc3ccc(C(F)(F)F)cc3)C2)c1C (stereo not given)	-8	-12
Cc1ccc(-c2c(C)nn3c(N4CCN(c5cccc(C)n5)CC4)cc(C)nc23)cc1	-11	-11
Nn1ccc2c(nnc3ccnn32)c1=O	4	2
CN1CCN2CCN(Cc3ccc(Sc4ncn[nH]4)o3)CC2C1=O (stereo not given)	1	0
Nc1c2cnn(-c3ccccc3)c2nc(=O)n1-c1ccccc1	-4	-6
Clc1ccc(C2CC(c3ccc(Br)cc3)=Nc3ncnn32)c(Cl)c1 (stereo not given)	-1	-5
O=C(C1=COCCO1)N(Cc1cccnc1)c1nc2c(F)cc(F)cc2s1	-7	1
CC(C)Nc1ncccc1C(=O)NCCc1c[nH]c2ccccc12	3	3
CN=Cc1c(Cl)ncn1-c1ccccc1	3	-10
O=C(CN1Cc2ccccc2OC(c2ccccc2F)C1)NCCc1nc(-c2cccnc2)n[nH]1 (stereo not given)	16	3
CCC(=O)NC(C(C#N)C1=NC(C)(C)Cc2ccccc21)(C(F)(F)F)C(F)(F)F (stereo not given)	-10	-12
CCOC(=O)CNC(=O)N1CCC2(CC1)NC(=O)c1cc(F)c(F)cc1N2	0	11
O=C(CS(=O)(=O)Cc1ccc(Cl)cc1Cl)N1CCCC2CCCCC21 (stereo not given)	17	15
Cc1c(Sc2nnnn2C(C)(C)C)c(=O)[nH]c2ccccc12	-8	-8
c1cc(-c2ccc(-c3nn[nH]n3)cc2)c2cc[nH]c2n1	-2	-4
C(=NOCc1cccc(CON=Cc2ccco2)c1)c1ccco1	3	3
CCOC(=O)c1cc(-c2ccc(N3CCN(C(=O)[C@@H]4C[C@H]4c4ccccc4)CC3)cc2)n(-c2ccccc2Cl)n1	17	5
COC(C)c1cccc(-c2cnn(CC(=O)Nc3ccnn3CC3CC3)c2)c1 (stereo not given)	1	-2
O=C(c1ccc2nc(C3CC3)oc2c1)N1CC=C(c2ccccc2)CC1	8	6
CCCCOc1ccc(C(=O)Nc2c(C)nc3cccc(C)n3c2=O)cc1	0	-2

Carrying on:
SMILES	NPYLR7 ag	NPYLR7 ag max-min
Cc1cc(CC(C)NC(=O)c2cccc(CC3CCNCC3)c2)n[nH]1 (stereo not given)	-5	-14
CC(O)C1CCCCN1CCN1C(=O)c2ccccc2C1=O (stereo not given)	3	2
CCc1ccc(OCC(=O)NC(CS(C)=O)c2ccccc2)cc1 (stereo not given)	11	10
O=S(=O)(c1ccc(F)cc1)n1cnc2ccccc21	10	7
COc1cc2c(cc1-c1cccc(C(F)(F)F)c1)OCC(C)(C)CC2CO (stereo not given)	2	9
O=C(CCCn1cncn1)N1CCC(c2[nH]ncc2-c2ccccc2)CC1	1	0
CC(=O)c1c(C)[nH]c(C(=O)CSc2nc(C)c(C)c(C)c2C#N)c1C	11	10
Cc1ccc(F)c(NC(=O)CCC(=O)NCCN(C)S(C)(=O)=O)c1	-4	-8
COCc1cnc2c(c1SCC(=O)N(C)c1ccccc1)c(=O)n(C)c(=O)n2C	8	13
C=C(C)Cn1c(=O)c2c(nc3n2CC(C)CN3c2ccc(Oc3ccccc3)cc2)n(C)c1=O (stereo not given)	3	1
CC(=O)C(C)n1c(CN2CCCC(C)C2)nc2c1c(=O)n(C)c(=O)n2C (stereo not given)	0	-1
C=CCNC(=O)COc1coc(CN2CCN(c3ccc(F)cc3)CC2)cc1=O	-2	35
O=C(N[C@H]1CCN2C(=O)N(c3cccc4ccccc34)C(=O)[C@@H]2C1)[C@@H](O)c1ccccc1	-4	-7
CN(CCN1CCCC1=O)C(=O)Nc1cc(Cl)ccc1Cl	-1	-2
Cc1ccc(C(=O)NCC(=O)N(C)Cc2ccc(C)cc2C)cc1	-1	-2
Cc1noc(C(C)NS(=O)(=O)c2ccc(Br)c(C)c2)n1 (stereo not given)	-2	-3
CCN(CC)c1ccc(CN(CC(C)C)C(=O)Nc2ccccc2OC)c(OS(=O)(=O)c2ccc(OC)cc2)c1	20	16
COc1cc(Br)cc2cc(S(=O)(=O)c3ccc(F)c(C)c3)c(=O)oc12	3	6
O=C(CCC1CCCN(C(=O)Cc2cccs2)C1)N1CCN(Cc2ccccc2)CC1 (stereo not given)	19	12
CCOc1ccccc1NC(=O)CSc1ccc2nnc(-c3ccc(OC)cc3)n2n1	2	21
O=C1CN(C(=O)Cc2ccc3c(c2)CCO3)c2ccccc2N1	4	2
CCCn1c(=O)c2c(nc3n2CC(C)=NN3CCN2CCOCC2)n(C)c1=O	9	12
CN1C(=S)NC2c3ccccc3O[C@@]1(C)C2C(=O)Nc1ccccc1 (stereo not given in full)	3	7
c1ccc(NCc2cnc[nH]2)cc1	22	7
Cc1nonc1C1CCCN1C(=O)c1cn2ccsc2n1 (stereo not given)	8	4

By substructure: those above with bromine.
SMILES	NPYLR7 ag	NPYLR7 ag max-min
Nc1ccc(F)cc1S(=O)(=O)Nc1ccc(Br)cc1	28	18
O=C(C1CCN(C(=O)[C@@H]2CCCN2C(=O)Nc2c(F)cc(Br)cc2Br)CC1)N1CCCCC1	4	7
Cc1c(Cl)cccc1NC(=O)c1cc2nc(-c3ccc(Br)cc3)cc(C(F)(F)F)n2n1	11	2
Clc1ccc(C2CC(c3ccc(Br)cc3)=Nc3ncnn32)c(Cl)c1 (stereo not given)	-1	-5
Cc1noc(C(C)NS(=O)(=O)c2ccc(Br)c(C)c2)n1 (stereo not given)	-2	-3
COc1cc(Br)cc2cc(S(=O)(=O)c3ccc(F)c(C)c3)c(=O)oc12	3	6

Carrying on.
SMILES	NPYLR7 ag	NPYLR7 ag max-min
Cc1sc2ncn(NC(=O)CSc3ncn[nH]3)c(=O)c2c1C	3	1
COC(=O)CCc1nc2ccccc2[nH]c1=O	4&0	8&-1
NC(=O)c1ccc(N2CCCC2)c(NS(=O)(=O)c2ccc(F)cc2F)c1	6	3
CN1CCN(c2cccc(Nc3nc4c(-c5ccc(S(C)(=O)=O)cc5)cccn4n3)c2)CC1	3	-3
COc1ccc2[nH]c3c(c2c1)CCN(C(=O)c1c(F)cccc1Cl)C3c1ccc(OCc2ccccc2)cc1 (stereo not given)	10	-1
O=C(CN1CCN(S(=O)(=O)c2cccc(F)c2)CC1)N1CCOCC1	-17	-16
C#CCN(CC=C)C(=O)c1cc(OC)ccc1OC1CCN(C(C)=O)CC1	6	2
CCCCCCc1ccc(C(=O)N(CCCOC)CC(=O)N(CCc2c[nH]c3ccccc23)Cc2ccc(OC)c(OC)c2)cc1	8	18
CCCCC(=O)N(C)c1c(C)nc2ccc(C(=O)N3CCN(S(=O)(=O)CC)CC3)cn12	7	-6
Cc1ccc2oc(-c3cccc(C)c3OCC(=O)NCc3ccc(F)cc3)nc2c1	-3	4
CCCN1C(=O)C(=Cc2cccc(O)c2)NC1=S	8	3
O=C(Cn1cc(OCc2ccc(F)cc2)c(=O)cc1CO)NCc1ccccc1Cl	3	5
CN(Cc1n[nH]c2c1CCC2)C(=O)CCNC(=O)c1ccc(F)cc1	1	-5
CCOC(=O)CNc1c(-c2cccc(O)c2)nc2ccc(C)cn12	3&4	8&5
CCCCS(=O)(=O)N1CCN(C(c2ccccc2)c2ccc(Cl)cc2)CC1 (stereo not given)	20	19

Screening results deposited in PubChem by Fisher Drug Discovery Resource Center.
